Source: PubChem
VACV Venus inh: vaccinia inhibition (Venus reporter); Vaccinia virus Venus reporter expression, fluorescence; Potency, µM (titrated, usually from 36.5 µM), for inactives: at the highest dose activity change, negative = inhibition, most hits filed as inhibitors; AID 720580; actives 0.46% (n = 330,000); active means well fitted inhibition curve with a large enough effect; inconclusive means small, poorly fitted or top-dose-only effect; inactive means no such curve, though single readings can be large or run the other way; tested in A549 cells; also: nearly all actives have a fitted effect of over 30% in size; inactives centre near -10
VACV mCherry inh: inhibitors of vaccinia virus infection (mCherry reporter signal) | Potency, µM (titrated, usually from 36.5 µM), for the others: at the highest dose activity change, negative = inhibition, most hits filed as inhibitors | actives 0.63% (n = 310,000) | Vaccinia virus mCherry reporter infection, fluorescence; about a quarter of the inactives have no number | AID 720579; active = well fitted inhibition curve with a large enough effect; inconclusive = small, poorly fitted or top-dose-only effect; inactive = no such curve, though single readings can be large or run the other way; tested in A549 cells; also: nearly all actives have a fitted effect of over 35% in size; inactives centre near -10
The depositor's hits bear a star; i = inactive; ? = inconclusive; . = not tested or not shown; & = joins results of further samples; [ ] = dose if it differs, or a comment. % is scaled to controls: 0 for no effect and ±100 for the full control effect; potency is read from the fitted curve at half-maximal effect.

SMILES	VACV Venus inh	VACV mCherry inh
O=C(NCc1ccncc1)C1CCN(C(=O)c2cccc(Cl)c2)CC1	4%	-2%
CCCCC[C@H]1CN(CCCC)C(=O)[C@@H]1CC(=O)NCc1ccc(OC)cc1	-26%&-19%	?
CC1=C(C(=O)Nc2nc3ccccc3s2)C(c2ccco2)C(C#N)=C(SCC(=O)NC2CCCCC2)N1 (stereo not given)	-23%	?
COC(=O)c1c(NC(=O)COC(=O)CCNS(=O)(=O)c2ccc(NC(C)=O)cc2)sc(C)c1C	?	?
O=C(N1CCCC1)N1CCN(S(=O)(=O)c2ccccc2)CC1	-10%	-14%
COc1ccc(C)cc1NC(=O)CN(c1ccccc1)S(=O)(=O)N(C)C	-4%	-9%
COc1ccc(C2CC(=O)c3sc(N)nc3C2)cc1 (stereo not given)	-9%	i
CCc1ccc2[nH]c(=O)c(CN(CCN(C)C)C(=S)NCc3ccco3)cc2c1	-1%	-23%
COCC1CCN(C(=O)CCc2nnc(C3(c4ccc(Cl)cc4)CCC3)o2)CC1	-11%	i
O=C(NCc1ccco1)C1Cc2ccccc2CN1C(=O)c1ccco1 (stereo not given)	-4%	-19%
COc1ccc([C@H]2CC(=O)C=C(c3cc(F)ccc3OC)C2)cc1	-17%	-12%
O=[N+]([O-])c1ccccc1C1Nc2cccc3cccc(c23)N1	-7%	-6%
O=C(CN(c1ccccc1)S(=O)(=O)c1ccccc1)N/N=C/c1ccco1	-10%	-20%
CCC1=NN2C(=N)/C(=C\c3cccn3-c3cccc(Cl)c3)C(=O)N=C2S1	2%	-9%
O=C(Nc1cnn(C23CC4CC(CC(C4)C2)C3)c1)c1cc(-c2ccccc2)on1	-2%	i
O=S(=O)(c1ccc(Cl)cc1)N1CCC(O)(c2cccnc2)CC1	-10%	i
CO[C@H]1CN(C)C(=O)c2cc(NC(=O)c3cc(C)on3)ccc2OC[C@@H](C)N(C(=O)C2CC2)C[C@H]1C	-19%	0%
COCCNC(=O)C(c1ccc(F)cc1)N(CC1CCCO1)C(=O)CCC(=O)Nc1ccccn1 (stereo not given)	0%	i
COc1cccc(CNc2nc3cc(-c4ccc(F)cc4)sc3c(=O)n2C)c1OC	-12%	7%
Clc1ccc(-c2nnc3sc(Cc4cccs4)nn23)cc1	-6%	-12%
Cc1ccc(NC(=O)CSc2nnnn2C)cc1S(=O)(=O)N1CCCCC1	-22%	?
O=C(O)CCCN1C(=O)c2ccc(C(=O)c3cccc([N+](=O)[O-])c3)cc2C1=O	-10%	-3%
C=CCn1c(COc2ccccc2)nnc1SCC(=O)C(C)(C)C	-20%	.
CCCCCC(=O)Nc1ccc2oc(-c3cncc(Br)c3)nc2c1	-6%	-11%
CC1=C(C(=O)Nc2ccc(C(=O)NCCCN3CCCCC3C)cc2)SCCO1 (stereo not given)	-12%	-17%
O=[N+]([O-])c1nn(-c2ccc3c(c2)OCCO3)n(O)c1=NC1CCCCC1	-22%	-18%
Cc1ccccc1OCC(=O)Nc1ccc2oc(-c3ccc(F)cc3)nc2c1	-29%	-28%
Cc1nn(-c2ccccc2)c(N)c1N=Nc1ccc(Cl)cc1	?	-26%
N/C(=N\OC(=O)/C=C/c1ccccc1Cl)c1cccnc1	3%[7.34 µM]	-8%[7.34 µM]
Cc1cccc(C(=O)Nc2ccc(N3CCC(N4CCCCC4)CC3)c(C(=O)O)c2)c1	-18%	-2%
S=C(NCCCN(Cc1ccc(Cl)cc1)c1ccc(Br)cn1)NCc1ccc2nc[nH]c2c1	-23%	-20%
C[C@H](NC(=O)c1nc[nH]c1C(=O)NCc1ccc(CNC(=O)OC(C)(C)C)cc1)C(=O)OCc1ccccc1	-6%	-3%
COc1ccc([C@H]2CC(=O)C=C(c3cc(Cl)ccc3C)C2)cc1	-12%	i
Cc1cccn2c(=O)cc(CSc3nnc(NC(=O)C(C)C)s3)nc12	-17%	-3%
C=Cn1c(N2CCOCC2)nc2c1c(=O)[nH]c(=O)n2C	-5%	.
Cc1ccc(NC(=O)c2ccc3c(O)c(S(=O)(=O)c4ccc(Cl)cc4)c(=O)[nH]c3c2)cc1	-2%	-12%
C#CCSc1nc(N)c2c(n1)OC(N)=C(C#N)C2c1cccnc1 (stereo not given)	-13%	i
CCCN1CCN(c2nc3c([nH]2)c(=N)ncn3CC(O)CO)CC1 (stereo not given)	-4%	-10%
FC(F)(F)c1ccccc1CN1CCC(Cc2ccccc2)CC1	-11%	i
CCCCNC(=O)CC1N=C2c3ccccc3N=C(SCC(=O)NCc3ccccc3Cl)N2C1=O (stereo not given)	-9%	1%
COCCCNC(=O)c1ccc2c(c1)N(Cc1ccccc1)C(=O)c1ccccc1S2	-5%	-10%
COC(=O)CC1(C(=O)OC)Oc2ccc(Br)cc2C(=O)N1c1cccc(Cl)c1Cl (stereo not given)	-1%[7.34 µM]	-24%[7.34 µM]
CCCn1c(=N)c(S(=O)(=O)c2ccccc2)cc2c(=O)n3ccccc3nc21	-12%	-1%
CCCCN1C[C@H](c2ccccc2)[C@@H](CC(=O)NC)C1=O	-17%	-1%
COc1ccc(NC(=O)c2cccc(NC(=O)C(C)C)c2)c([N+](=O)[O-])c1	-16%	-1%
CCOC(=O)c1cn(CC2CC2)c2cc(F)c(F)cc2c1=O	-15%	-5%
Cc1ccc(Cl)cc1N1CCN(C2(c3ccccc3)C(=O)c3ccccc3C2=O)CC1	2%	-13%
CCOCCCNS(=O)(=O)c1ccc(NC(=O)C2CC(=O)N(c3ccc(C)cc3)C2)cc1 (stereo not given)	-25%	?
CN(C(=O)C1CCOC1)c1nnc(-c2ccccn2)s1 (stereo not given)	-7%	-17%
CCOC(=O)c1c(CN2CCCCC2)n(C)c2ccc(OC)c(S(=O)(=O)c3ccccc3)c12	-6%	.

The results go on.
SMILES	VACV Venus inh	VACV mCherry inh
COc1ccccc1N1CCN(CC(O)COCCOc2ccc(Br)cc2)CC1 (stereo not given)	-23%	-21%
O=C(COC(=O)C1(c2ccccc2)CC1)NNC(=O)c1ccccc1	-1%	i
CC(C)CN(CC(C)C)S(=O)(=O)N1CCC(C(=O)NC2CCCCCCC2)CC1	-9%	-15%
CCOC(=O)N1CCN(C(=O)CS(=O)Cc2nc(-c3ccc(C)cc3)oc2C)CC1 (stereo not given)	-21%	-7%
Cc1ccc(C)c(OCCCC(=O)Nc2nccs2)c1	-16%	i
COCCn1nnnc1C(c1cccs1)N1CCN(c2cc(C)ccc2C)CC1 (stereo not given)	-27%	-11%
COc1ccccc1C/C(N)=N/OC(=O)c1ccc2c(c1)OCO2	-12%	-11%
O=C(NCc1ccccc1)C1CCCN(S(=O)(=O)c2cccs2)C1 (stereo not given)	-6%	i
Cc1c(C(=O)Nc2ccccn2)oc2ccc(Br)cc12	-2%	-12%
CCc1ccc(C2CC(=O)Nc3c2c(=O)nc2c(C)cccn32)cc1 (stereo not given)	-5%&-3%	4%
O=C(CN1CCCCCC1)Nc1ccc(Oc2ccccc2)cc1	-19%	-7%
CCCNC(=O)Cn1nc(-c2ccccc2OC)ccc1=O	-2%	i
CCCCCNCc1cccn1C	-6%	i
CC(=O)c1ccc(NC(=O)CSc2nnc3ccc(-c4ccc(F)cc4)nn23)cc1	-14%	-2%
COc1ccc(S(=O)(=O)N2CCCCC2)cc1NC(=O)c1cc(C)on1	-3%	i
CCc1c(C)sc(NC(=S)NC(C)C2CCCO2)c1C(=O)OC (stereo not given)	-13%	-11%
CCCCOc1ccc(C(C)NC(=O)CCS(=O)(=O)Cc2ccccc2F)cc1 (stereo not given)	-26%	i
O=C(CSc1nc2ccccc2s1)NC1CCCC1	-9%	-7%
COCCNC(=O)Cn1c(=O)n(CCCCCC(=O)Nc2ccccc2)c(=O)c2sccc21	-7%&-19%	-9%&-21%
COc1ccc(N=Cc2c(O)n(-c3cccc(C)n3)c(=O)c3ccccc23)cc1	-21%	-28%

Given field by field: part of the list above
COc1ccc(S(=O)(=O)N2CCCCC2)cc1NC(=O)c1cc(C)on1
- VACV Venus inh = -3%
- VACV mCherry inh = i
CCc1c(C)sc(NC(=S)NC(C)C2CCCO2)c1C(=O)OC (stereo not given)
- VACV Venus inh = -13%
- VACV mCherry inh = -11%
CCCCOc1ccc(C(C)NC(=O)CCS(=O)(=O)Cc2ccccc2F)cc1 (stereo not given)
- VACV Venus inh = -26%
- VACV mCherry inh = i
O=C(CSc1nc2ccccc2s1)NC1CCCC1
- VACV Venus inh = -9%
- VACV mCherry inh = -7%

Remaining list, next part:
SMILES	VACV Venus inh	VACV mCherry inh
Cc1ccc(NC(=O)Nc2cccnc2)cc1NC(=O)Nc1cccnc1	?	-25%
COc1cccc(CN2CC(C(=O)N3CCN(C(C)C)CC3)CCC2=O)c1 (stereo not given)	-15%	-1%
CSc1cccc(NC(=O)Cn2c3ncccc3c(=O)n2-c2ccc(C)cc2)c1	-11%	-7%
Cc1cc(N2CCOCC2)nc2ccc(NC(=O)C3CCC(C)CC3)cc12 (stereo not given)	-16%	-4%
N#CCCN1CCN(CCC#N)C1=S	-2%	-10%
COc1ccc(-c2noc(N3CCC(C(=O)Nc4ccc(F)cc4Cl)CC3)n2)cc1	-15%[7.34 µM]	-11%[7.34 µM]
CC/C(=C\c1oc2cc3ccccc3cc2[n+]1CC)Nc1ccccc1	?	?
Cc1ccc2c(n1)sc1c(-c3ccc(Br)cc3)c(C#N)c(N)nc12	-13%	-20%
COc1cc(C(C)=O)ccc1COc1ccc(C(=O)OC(C)C(=O)NC(N)=O)cc1OC (stereo not given)	-7%	-16%
O=C(Nc1ccccc1)Nc1ccc(Oc2cccnc2)nc1	-26%	-29%
CCCc1ccc2oc(C(=O)N3CCC(COC)C3)c(C)c2c1 (stereo not given)	-4%	-12%
CC(=O)OCC1OC(n2c(S)c(C#N)c(-c3ccccc3)c(C#N)c2=O)C(OC(C)=O)C(OC(C)=O)C1OC(C)=O (stereo not given)	-17%	-11%
Cc1ccc2cc(CCNC(=O)c3ccco3)c(=O)[nH]c2c1	-13%	i
CCc1ccc(C(O)c2ncc(-c3ccccc3OC)[nH]2)cc1 (stereo not given)	-16%	?
CCOC(=O)/C(=C/c1cn(C)c2ccccc12)NC(=O)c1ccccc1	2%	?
COc1cccc(N2C(=O)CN(Cc3ccc(OC)c(OC)c3)C2=S)c1	-4%	i
Cc1ccc(NC(=O)c2ccc3c(c2)C(=O)N(c2ccccc2C)C3=O)nc1	-17%	-12%
COc1ccc(-c2cn3c(n2)sc2cc(C(=O)NCC(C)c4ccccc4)ccc23)cc1 (stereo not given)	-5%	-6%
O=C(OC(C(=O)NCc1cccs1)c1ccc(F)cc1)c1ccco1 (stereo not given)	1%	-10%
COc1ccc(C(=O)NNC(=O)COc2ccc(Cl)cc2C)cc1S(=O)(=O)N1CCOCC1	-18%	i

4 entries drawn at random from those above:
SMILES	VACV Venus inh	VACV mCherry inh
COc1cccc(N2C(=O)CN(Cc3ccc(OC)c(OC)c3)C2=S)c1	-4%	i
CCc1ccc(C(O)c2ncc(-c3ccccc3OC)[nH]2)cc1 (stereo not given)	-16%	?
COc1ccc(C(=O)NNC(=O)COc2ccc(Cl)cc2C)cc1S(=O)(=O)N1CCOCC1	-18%	i
CCCc1ccc2oc(C(=O)N3CCC(COC)C3)c(C)c2c1 (stereo not given)	-4%	-12%

(listing goes on)
SMILES	VACV Venus inh	VACV mCherry inh
COc1ccc(Cn2ccc3nc(C)c(C(=O)Nc4ccc(OC)cc4)cc3c2=O)cc1	-8%	-13%
CC(C)[N+](C)(C)CC(O)CN(c1ccccc1)c1ccccc1 (stereo not given)	-2%	-16%
Nc1nonc1NC(=O)CSc1ncccc1C(=O)O	-16%	-29%
CCOC(=O)CCCNC(=O)CN1CCC(c2nc3ccccc3s2)CC1	-5%	-13%
COc1ccc(CCNC(=O)CSc2n[nH]c(-c3ccccc3Cl)n2)cc1OC	-17%	-13%
COC(=O)c1sc(NC(=O)COc2ccc(OC)cc2)nc1C	-6%	-16%
Cc1ccnc(SC2CC(=O)N(c3ccccc3)C2=O)n1 (stereo not given)	-8%	i
CN(CC(=O)Nc1cccc(S(=O)(=O)N(C)c2ccccc2)c1)Cc1cccs1	-12%	-17%
Cc1c(NC(=S)NC(=O)c2cccc(Br)c2)c(=O)n(-c2ccccc2)n1C	-24%	i
Cc1ccc2nc(N(CCCN(C)C)C(=O)c3ccc(S(=O)(=O)N4CCc5ccccc5C4)cc3)sc2c1	?	?
CCOc1ccccc1CNC(=O)c1c([N+](=O)[O-])c(C)nn1C	-28%	-10%
N/C(=N\OC(=O)/C=C/c1ccccc1)c1ccc(Cl)cc1	4%	i
COc1ccc(S(=O)(=O)N(CCc2ccccc2)CC(=O)Nc2cc(C)ccc2C)cc1	-15%	-24%
CC(=O)N1c2ccc(S(=O)(=O)N3CCC(C(=O)NC4CCCCC4C)CC3)cc2CC1C (stereo not given)	-14%	-20%
COc1ccccc1C(=O)N1CCN(c2ccc(N3CCOCC3)nn2)CC1	-2%	-23%
CC1CCC(C(C)C)C(=O)/C1=C/c1ccc(N)cc1 (stereo not given)	-2%	?
CN(Cc1ccccc1)C(=O)CSc1nnc(-c2ccco2)n1-c1ccccc1	-12%	-11%
O=C(CSc1ccc(-c2ccccn2)nn1)N1CCc2ccccc21	-6%	-9%
Cc1cccc2sc(NNC(=O)C3=COCCO3)nc12	-11%	-2%
O=C(/C=C/c1ccccc1)Nc1nnc(-c2ccco2)o1	-18%	i
Cc1cn([C@H]2C[C@H](O)[C@@H](CNCc3ccc(F)c(N4CCOCC4)c3)O2)c(=O)[nH]c1=O	-8%	-2%
CC(=O)Nc1ncc(Cc2cccc(Cl)c2)s1	-17%	i
